H5N1 antiviral: antiviral screen in MDCK cells, H5N1 avian flu; cytopathic effect, luminescence, 72 h; stronger effect = higher value; no value below 0 was filed and about half of the inactive calls have no number; reference of the scale not given here; inhibition, % at 50 µM; actives 0.07% (n = 96,000); in the data active = inhibition above about 25%
* marks the source's active call; other numbers are inactive results; i = inactive. A portion of the library, so the mix of outcomes need not match the whole.

Structure	H5N1 antiviral
C=CCn1c(C)cc(C(=O)CN2C(=O)NC3(CCCc4ccccc43)C2=O)c1C (stereo not drawn)	1.6
O=c1nc(C(F)(F)F)nc2ccccn12	i
CCSc1nnc(NC(=O)CSc2nnc(Cc3cccn3C)n2-c2ccc(C)cc2)s1	1.9
Nc1ccc(C2(c3ccc(N)cc3)CN3CCC2CC3)cc1	0.9
C=CCn1c(O)c(C(CC)=NCCN2CCOCC2)c(=O)[nH]c1=O	0.9
Cc1cccc2cc(CN(Cc3ccc(F)cc3)C(=O)N3CCOCC3)c3nnnn3c12	i
O=C(NCc1ccco1)c1ccc(Cn2c(=O)c3ccccc3n(Cc3cccc(F)c3)c2=O)cc1	i
CCCCn1nc2cc(C(=O)NCC34CC5CC(CC(C5)C3)C4)ccc2c1OC	5.4
O=C(O)CC1Sc2ccccc2NC1=O (stereo not drawn)	i
COC(=O)C(C)n1cnc2c(nnn2-c2cccc(Cl)c2)c1=O (stereo not drawn)	0.3
Fc1ccc(NC(=S)N/N=C/c2cccc(Br)c2)c(F)c1	i
COC(=O)c1cc(OC)c(OC)cc1NC(=S)N1CCC(C(N)=O)CC1	i
O=C1C2C3C=CC(C3)C2C(=O)N1c1n[nH]c(-c2ccccc2)n1 (stereo not drawn)	i
N#Cc1nc(-c2cccs2)oc1NCc1ccccc1	1.8
Cc1cc(OC(=O)c2ccccc2)n(CCC#N)n1	i
CC(C)COC(=O)C(C#N)c1nc2ccccc2nc1N1CCN(Cc2ccc3c(c2)OCO3)CC1 (stereo not drawn)	i
CS(=O)(=O)N1CCN(C2Cc3ccccc3C2)CC1	i
COc1ccc(S(=O)(=O)n2nc(OC(=O)c3ccccc3Br)cc2N)cc1	i
CC(C)C1(C)N=C(c2ncccc2C(=O)O)NC1=O (stereo not drawn)	0.4
COc1cc(S(=O)(=O)N2CCN(Cc3ccccc3)CC2)ccc1Br	i
Cc1cc(C)nc(NC(=O)CSc2nc3ccccc3o2)n1	1.1
COc1ccc(S(=O)(=O)NCCSC(C)(C)C)cc1Cl	i
CC(=O)OC(C(=O)NC1CCCCC1)c1ccncc1 (stereo not drawn)	i
O=C(c1ccc(Cl)cc1)c1ccc(OCC(=O)N2CCOCC2)cc1	2.8

3 structures from above, ordered by formula weight, highest first.
Structure	H5N1 antiviral
COc1ccc(S(=O)(=O)n2nc(OC(=O)c3ccccc3Br)cc2N)cc1	i
COc1cc(S(=O)(=O)N2CCN(Cc3ccccc3)CC2)ccc1Br	i
O=C1C2C3C=CC(C3)C2C(=O)N1c1n[nH]c(-c2ccccc2)n1 (stereo not drawn)	i

Other structures follow:
Structure	H5N1 antiviral
COc1ccccc1Nc1nnc(SCC(=O)c2cc(C)n(CC3CCCO3)c2C)s1 (stereo not drawn)	0.6
N#Cc1cn(-c2ccccc2)nc1-c1ccco1	0.5
O=C1CC(N2CCOCC2)C(=O)N1c1cc(Cl)cc(Cl)c1 (stereo not drawn)	i
CN(C(=O)c1ccncc1)c1nnc(-c2ccncc2)s1	0.6
O=C1C2CCCN2c2ccc(S(=O)(=O)N3CCOCC3)cc2N1Cc1cccc(C(F)(F)F)c1 (stereo not drawn)	2.1
COc1ccc(CNC(=O)c2cc(C3CC3)on2)cc1	0.4
CCOC(=O)C1CCN(C(=O)c2sc3nc(-c4ccc(F)cc4)cn3c2C)CC1	0.1
COc1ccc(OC)c(NC(=O)Nc2ccccc2C)c1	0.3
Cn1c(Cc2ccccc2)nnc1SCC(=O)c1ccc(Br)s1	i
COc1ccc(C(=O)Nc2cccc(C(=O)N3CCN(C)CC3)c2)cc1	9.9
O=C1Nc2ccccc2/C1=C/c1cnc[nH]1	i
CCCCc1c(O)nc(SCC(=O)N2CCOCC2)[nH]c1=O	i
Cc1[nH]c2ccccc2c1C(=O)CN1CCCCC1C (stereo not drawn)	i
O=C(O)c1ccc(S(=O)(=O)c2ccccc2)cc1	2.2
O=C(Cc1ccccc1)NCCCc1ccccc1	i
CC(C)CC(=O)NC1(C(F)(F)F)C(=O)N(Cc2ccccc2)C2=C1C(=O)CC(C)(C)C2 (stereo not drawn)	0.1
O=C(O)c1ccc(N2Cc3ccccc3C2)cc1O	1.3
COc1ccc(CCC(=O)N2CCN(C3CCCCC3)CC2)cc1	i
COc1ccc2cc(/C=C/C(=O)c3ccco3)c(Cl)nc2c1	1.0
O=C(Nc1ccccc1Cl)NC1(C(=O)NCCCN2CCOCC2)CCCCC1	0.3
Cc1ccc(SCC(=O)N2CCOCC2)cc1	i
Nc1nc(N2CCCCC2)nc2ccccc12	0.3
O=C(Cn1cc(/C=N/NC(=O)c2cccc(C(F)(F)F)c2)c2ccccc21)Nc1ccc(F)cc1	i
O=C(OCCN1C(=O)CCC1=O)c1ccc(S(=O)(=O)N2CCCCC2)cc1	i
Cc1cc(C(=O)Nc2sc(C)c(C)c2C#N)c(C)o1	0.5
CCOC(=O)C(C(=O)OCC)N(C#N)c1nc(SC)nc(N(C)C)n1	2.4
O=C(O)[C@H]1CCCC[C@H]1C(=O)NCCNC(=O)[C@@H]1CCCC[C@@H]1C(=O)O	0.1
CNS(=O)(=O)c1cccc2cccnc12	i
CSc1nc2nc(C(F)(F)F)cc(-c3ccccc3)n2n1	i
O=c1cc(O)nc(SCc2ccccc2)n1-c1ccc(F)cc1	i
CCC1CCCCN1C(=O)N[C@@H](CCSC)C(=O)OC (stereo partly drawn)	0.6
COC(=O)c1cn(NC(=O)c2cc(OC)c(OC)c(OC)c2)c(=O)c2ccccc12	0.6
Cc1cccc(N(CC(=O)NCc2ccccc2)C(=O)Cn2nnc(-c3ccc(C)o3)n2)c1	i
CCOC(=O)C1CN(S(=O)(=O)c2ccccc2)c2cc(S(=O)(=O)CC)ccc2O1 (stereo not drawn)	0.5
COc1ccc(C2(O)CCN(C(=O)NC3CCCCC3)CC2)cc1	i
CCN1C(=O)CSc2ccc(C(=O)NCCCN3CCOCC3)cc21	0.9
Cc1cc(N2CCN(C)CC2)nc2ccc(NC(=O)CCC(=O)NCc3ccco3)cc12	0.2
Cc1ccc(-c2noc(CCCC(=O)Nc3cccnc3)n2)cc1	i
O=C(NC(=S)Nc1ccc(Oc2ccccc2)cc1)c1ccc(Cl)cc1	i
Cc1cccc(-c2nc(CS(=O)CC(=O)NCCCSC3CCCCC3)c(C)o2)c1 (stereo not drawn)	i
COc1ccc(N2CCN(C(=O)CNC(=O)Cn3c(C)cc4ccccc4c3=O)CC2)cc1	i
O=C(Nc1nnc(C2CC2)s1)c1cccc(S(=O)(=O)N2CC(c3ccccc3)CC2=O)c1 (stereo not drawn)	0.9
COc1ccc(CCNC(=O)C2CC(=O)N(c3ccccc3)C2)cc1OC (stereo not drawn)	i
CCNC(=S)NNC(=O)c1cc(-c2cccc(OCC)c2)nc2ccccc12	i
Cc1cc(C)c(S(C)(=O)=O)c(Oc2cccc(Cl)c2)n1	1.1
COC(=O)c1cn[nH]c1NC(=S)Nc1ccc(C)cc1Cl	i
Nn1c(SCC(=O)NC2CCCc3ccccc32)nnc1-c1cccs1 (stereo not drawn)	i
CC1Cc2ccccc2N1C(=O)COC(=O)c1ccc(S(=O)(=O)N(C)C)cc1 (stereo not drawn)	0.1
O=C1CC(N2CCN(C/C=C/c3ccccc3)CC2)C(=O)N1Cc1ccc(N2CCCC2=O)cc1 (stereo not drawn)	0.2
Clc1ccc(-c2n[nH]c3c2CCC3)c(Cl)c1	i
C=CCn1c(Br)nc2c1c(=O)n(C)c(=O)n2C	1.8
CCOc1ccc(NC(=O)Cc2c(O)c3ccccc3[nH]c2=O)cc1	i
CCOc1ccccc1N1CCN(S(=O)(=O)c2cccs2)CC1	i
COc1ccccc1NC(=O)c1ccc(NC(=O)CSc2nnnn2C)cc1	i
CCOC(=O)CN(C(=O)CN1CCOCC1)c1ccc(Br)cc1	0.6
CC(C)c1c(C#N)c(N)nc(SCC(=O)c2cc3ccccc3oc2=O)c1C#N	i
CCOc1ccc(N2C(=O)CC(N3CC(C)OC(C)C3)C2=O)cc1 (stereo not drawn)	i
COc1cc(N2CN=c3s/c(=C\c4ccccn4)c(=O)n3C2)cc(OC)c1OC	i
CCOC(=O)c1c(C)oc(NC(=O)COc2ccc(Cl)cc2C)c1C#N	1.0
COCc1nc(-c2cc(OC)c(OC)c(OC)c2)no1	i

Retrieved by structure from the list above, 5 records:
Structure	H5N1 antiviral
O=C(Nc1nnc(C2CC2)s1)c1cccc(S(=O)(=O)N2CC(c3ccccc3)CC2=O)c1 (stereo not drawn)	0.9
N#Cc1nc(-c2cccs2)oc1NCc1ccccc1	1.8
Nc1ccc(C2(c3ccc(N)cc3)CN3CCC2CC3)cc1	0.9
COc1ccc2cc(/C=C/C(=O)c3ccco3)c(Cl)nc2c1	1.0
COc1ccc(CCNC(=O)C2CC(=O)N(c3ccccc3)C2)cc1OC (stereo not drawn)	i

Next entries.
Structure	H5N1 antiviral
CCCOc1ccc(Cn2cnc3ccccc32)cc1	i
Cc1snc(SCC(=O)N/N=C(\N)COc2ccc(F)cc2)c1C#N	0.1
N#CC1=C(N)C(C#N)(C#N)C2(CCC3(CC2)OCCO3)C2CC3(CC=C12)OCCO3 (stereo not drawn)	i
O=C(O)C1CCCCC1C(=O)NCCC(c1ccccc1)c1ccccc1 (stereo not drawn)	i
Cc1ccc(-c2nc3ccccc3s2)cc1S(=O)(=O)N1CCOCC1	i
Cc1cc2c(cc1C)CSC(c1c(O)ccc3ccccc13)SC2	i
CCCC(=O)c1cc(F)c(N2CCN(S(=O)(=O)c3ccccc3)CC2)cc1C	4.5
COCCNS(=O)(=O)c1cc(F)ccc1OC	i
COc1ccc(-c2c(C)nn3c(N4CCC5(CC4)OCCO5)cc(C)nc23)cc1OC	3.4
CN(c1ccc(S(=O)(=O)N2CCOCC2)cn1)C1CCCCC1	2.6
O=C(O)c1ccc(C(=O)Nc2cccc(NC(=O)C3CCCO3)c2)cc1 (stereo not drawn)	0.2
CCOc1ccccc1C1C(C(N)=O)=C(C)Nc2nc(-c3ccc(OC)cc3)nn21 (stereo not drawn)	i
O=C(COc1ccc2ccccc2c1)NC1=NCCS1	1.1
Cc1ccc(/C=C/C(=O)c2nc3ccccc3[nH]2)cc1	i
N#CC1=C2SCN(Cc3ccco3)CN2C(=O)CC1c1ccc(Cl)cc1 (stereo not drawn)	0.1
CCn1c(SCC(=O)Nc2nnc(C)s2)nnc1-c1ccncc1	i
Cc1ccc(S(=O)(=O)N2CCN(S(C)(=O)=O)C2)cc1	0.0
COc1ccc(CCNC(=O)CN(C2CCCCC2)S(C)(=O)=O)cc1OC	0.4
CCN1CCN(C(=S)c2ccc(OCC(=O)N3CCOCC3)cc2)CC1	0.5
O=C(CSc1nc2ccccc2c(=O)[nH]1)N1CCOCC1	0.1
CC(C)(C)NC(=O)NC(=O)COc1ccccc1C#N	i
O=C(OCc1ccc(C(=O)c2ccccc2)cc1)c1cccc(-c2nnc(-c3ccccc3)o2)c1	i
Cc1ccc(-c2cc(-c3ccccc3Cl)[nH]n2)c(O)c1	i
COc1cccc(C(=O)c2c[nH]c(C(=O)NCc3cccs3)c2)c1	i
CC1C2CC(C(CN(C)C)/C2=N/O)C1(C)C (stereo not drawn)	i
Cc1ccc(Oc2nc3c(c(=O)n(Cc4ccccc4F)c(=O)n3C)n2C)cc1	1.0
CC(C)C(=O)Nc1ccc(C(=O)NCc2cccnc2)cc1	i
Cc1ccc(C(=O)Nc2ccc3c(c2)OCO3)cc1S(=O)(=O)N1CCCC1	0.6
O=C(CSc1nc2ccccc2s1)N1CCN(C(=O)c2ccco2)CC1	1.4
Cn1c(=O)[nH]c(=O)c2c1nc1n2CCCS1	0.1
CCn1c(SCC(=O)c2ccc3ccccc3c2)nnc1-c1cccs1	1.6
CCOC(=O)CSc1nc(-c2ccccc2)nc2ccccc12	1.2
Cn1c(CNc2nc(-c3ccccc3)cs2)nnc1SCC(=O)OC1CCCCC1	i
Cc1ccc(Cn2c(Cc3ccccc3)nc3ccccc32)cc1	0.5
CN(C)/C=c1\sc2c(C#N)cc(C(=O)c3ccc(Br)cc3)n2c1=O	0.6
Cc1cc(NC(=O)CSc2nnc(-c3ccc(Cl)s3)o2)no1	i
Cc1cc(C(=O)OCC(=O)Nc2cccc(S(=O)(=O)N3CCOCC3)c2)c(C)o1	0.3
CCc1ccc(CNC(=O)C2CCC(=O)N2C2CCCCC2)cc1 (stereo not drawn)	i
CCOc1cccc(C2C(C(=O)c3ccc(C)o3)=C(O)C(=O)N2Cc2ccncc2)c1 (stereo not drawn)	0.2
COc1ccccc1Oc1coc2cc(OC(=O)N3CCOCC3)ccc2c1=O	i
CN1CCCN(S(=O)(=O)c2ccc3c(c2)OCCO3)CC1	i
COc1ccc(/C=N/NC(=O)Cc2csc(Nc3cccc(C(F)(F)F)c3)n2)cc1C	0.3
O=C(NC1(C(F)(F)F)N=C2SCCN2C1=O)c1ccccc1 (stereo not drawn)	i
CC1(C)CC(=O)C2=C(C1)N=C1c3ccccc3C(=O)C1C2c1ccc(Cl)cc1 (stereo not drawn)	0.8
CCN(CC)C(=O)COc1ccc(CC(=O)O)cc1OC	0.4
CCOC(=O)c1cc2occc2n1CC(=O)N1CCOCC1	i
CSc1ccc(S(=O)(=O)NCc2ccc(Cl)cc2)cc1	1.1
NC(=O)c1ccc(NC(=O)CCCN2C(=O)c3ccccc3C2=O)cc1	i
CC(Cc1ccccc1Sc1ccccc1O)N(C)C (stereo not drawn)	i
O=C(Cc1ccc(Cl)c(Cl)c1)OCC(=O)c1ccc[nH]1	i
COc1ccc(OC)c(S(=O)(=O)N(C)CC(=O)N2CCN(c3cccc(Cl)c3)CC2)c1	i
